Rango-impB inh: prevents formation of the Rango-importin beta complex; 340,000 tested, 0.031% active; Rango CFP/YFP FRET sensor + importin beta, 45 min; Potency, µM (doses to about 92.2 µM), for the others: at the top dose inhibition of complex formation; Q14974; active = rising FRET ratio curve, often small or poorly fitted; inconclusive = mostly compound fluorescence or quenching in the first reads; inactive = flat curves in all reads;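 note: potency is the fitted concentration of half-maximal effect; 0% = DMSO wells and 100% = buffer wells lacking importin beta; nearly all actives have a fitted effect of over 15% in size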
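Inhibition scored from the CFP 486 nm/YFP 530 nm FRET ratio 45 min after adding 0.125 microM importin beta to 50 nM Rango biosensor preincubated 5 min with compound (room temperature, PBS with DTT, Tween-20, BSA). No-importin wells as positive control.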
miR-21 FLuc: raises the signal of a miR-21 reporter. HeLa miR-21 FLuc reporter, luciferase, 48 h. Potency, µM (series often up to 38.3 µM), for inactives: top-dose reporter change, positive = more light. 340,000 tested, under 10 active. AID 2288; active = well fitted rising curve with a large enough effect; inconclusive = small, poorly fitted or top-dose-only effect; inactive = no such curve, though single readings can be large or run the other way;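 note: % of control where 0% means no effect; miR-21 action dims this reporter so a rising signal means less miR-21 action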
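Using DMEM plus 10% FBS, HeLa miR-21-FLuc cells are incubated with test compounds (final up to about 40uM) for 48 hours; firefly luciferase signal is then imaged following reagent-mediated lysis.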
GLA inh pH 4.5: alpha-galactosidase A (human) inhibition, pH 4.5 | 230,000 tested, under 10 active | activity change, negative = inhibition, % at 105 µM | P06280 | purified enzyme, 4-MU-alpha-Gal fluorescence, pH 4.5; inconclusive = small, poorly fitted or top-dose-only inhibition, or a rising curve; inactive = flat fitted curve, though single readings scatter; no compound was filed as active;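 note: 0% = full activity with enzyme and -100% = basal without enzyme; dose as in the result columns while the protocol names 77 µM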
Target sequence (P06280 whole entry, looked up): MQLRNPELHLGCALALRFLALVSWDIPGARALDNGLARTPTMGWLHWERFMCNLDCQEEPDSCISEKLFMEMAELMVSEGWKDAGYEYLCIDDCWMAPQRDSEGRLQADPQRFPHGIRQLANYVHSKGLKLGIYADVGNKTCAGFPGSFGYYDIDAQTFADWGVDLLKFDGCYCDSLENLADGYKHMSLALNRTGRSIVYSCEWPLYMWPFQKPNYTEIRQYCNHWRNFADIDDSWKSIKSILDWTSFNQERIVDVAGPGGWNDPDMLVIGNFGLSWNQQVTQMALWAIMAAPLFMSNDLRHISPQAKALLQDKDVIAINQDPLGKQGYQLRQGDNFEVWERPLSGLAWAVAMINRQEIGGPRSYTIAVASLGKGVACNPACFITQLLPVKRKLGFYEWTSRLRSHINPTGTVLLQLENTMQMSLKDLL
Rango dissoc inh: inhibitors of RanGTP-induced Rango-importin beta complex dissociation | O95149+P62826 | Biochemical FRET Rango-importin beta, RanGTP-induced dissociation | Potency, µM (doses to about 46.1 µM), for the others: at the top dose activity change, negative = inhibition | 340,000 tested, 0.071% active | AID 540253; active means falling FRET ratio curve, often poorly fitted, with flat reads before Ran was added; inconclusive means other falling curves, or compound fluorescence or quenching; inactive means flat or rising ratio curve;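 note: potency is the fitted concentration of half-maximal effect; % of control where 0% means no effect; nearly all actives have a fitted effect of over 45% in size; -100% = wells without RanGTP and RCC1; the record marks most hits as doubtful in a second field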
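Two FRET readings bracket the reaction: one 5 min after compound meets Rango–importin beta, another 45 min after RanGTP-RCC1 (0.6 uM Ran, 0.2 uM RCC1, 2 mM GTP) is added. Only the second defines inhibition.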
* = called active by the depositor; ? = inconclusive; nt = no result given; & = joins results of further samples; [ ] = dose if it differs, or a comment. This is a subset; count on the stated rates, not on these rows.

Below each SMILES: miR-21 FLuc | GLA inh pH 4.5 | Rango dissoc inh | Rango-impB inh
> CCCN(CC(=O)Nc1ccccc1C)C(=O)c1ccc2c(c1)OCO2
  nt | nt | 15% | 3.8%
> COCCn1nnnc1C(c1ccccc1)N1CCN(C(=O)c2ccco2)CC1 (centres undefined)
  -1% | nt | -4% | 2.2%
> COCCN(C(=O)C1CC(=O)N(Cc2ccccc2)C1)c1nc(-c2ccc([N+](=O)[O-])cc2)cs1 (centres undefined)
  nt | nt | 1% | ?
> CCn1c(CSc2n[nH]c(N)n2)nc2cc(C(=O)O)ccc21
  -1% | 4 | 0% | 0.5%
> COc1ccccc1OCC(=O)Nc1cc(Cl)ccc1N1CCCCC1
  nt | nt | -8% | ?
> COc1ccccc1N1CCN(CCCOc2ccc(F)cc2)CC1
  -6% | 6 | 9% | 0.9%
> CN(CC(=O)N1CCCC1)S(=O)(=O)c1ccc(Cl)cc1
  -1% | 5 | 1% | -0.6%
> CC(C)(C)C(=O)C(Cc1ccccc1)n1cncn1 (centres undefined)
  -4% | 4 | ? | -1.2%
> CN(Cc1ccccc1)C(=O)Cn1nc(C(F)(F)F)c2c1CCC2
  -9% | 11 | -6% | 0.6%
> S=C(NCC1CC1)N/N=C/c1ccccc1Cl
  -3% | -4 | -7% | -1.6%
> CCOC(=O)c1cc2sccc2n1CC(=O)c1ccc2c(c1)OCCO2
  -1% | -2 | 10% | 2.7%
> CCC(C(=O)Nc1ccc2c(c1)OCCO2)n1nnc2ccccc2c1=O (centres undefined)
  -54% | nt | 6% | 2.4%
> CC(=O)NC1C(=O)N(C)c2ccc(Br)cc21 (centres undefined)
  0% | 3 | -11% | -2.4%
> CC1(c2ccccc2)NC(=O)N(CC(=O)N2CCN(S(=O)(=O)c3ccccc3[N+](=O)[O-])CC2)C1=O (centres undefined)
  0% | nt | -5% | -0.2%
> CCOC(=O)c1c(C)[nH]c(C)c1C(=O)COC(=O)c1cc(OC)cc(OC)c1
  -11% | -5 | -7% | -1.4%

A draw from above in order of SMILES length, smallest number first:
Below each SMILES: miR-21 FLuc | GLA inh pH 4.5 | Rango dissoc inh | Rango-impB inh
> S=C(NCC1CC1)N/N=C/c1ccccc1Cl
  -3% | -4 | -7% | -1.6%
> CN(Cc1ccccc1)C(=O)Cn1nc(C(F)(F)F)c2c1CCC2
  -9% | 11 | -6% | 0.6%
> CCCN(CC(=O)Nc1ccccc1C)C(=O)c1ccc2c(c1)OCO2
  nt | nt | 15% | 3.8%

(cont.)
Below each SMILES: miR-21 FLuc | GLA inh pH 4.5 | Rango dissoc inh | Rango-impB inh
> NC(=O)CNC(=O)C1CCN(S(=O)(=O)c2ccc(-n3cnnn3)cc2)CC1
  -1% | nt | -8% | 4.6%
> Oc1cc2ccccc2cc1-c1nnc2n1-c1ccccc1SC2
  0% | -2 | -17% | -0.5%
> Nc1ccc(C(=O)O)cc1[N+](=O)[O-]
  -2% | 0 | 0% | ?
> C/C(=N\NC(=O)CCCCCNC(=O)c1ccccc1)c1ccccc1O
  -10% | -11 | -5% | 0.3%
> CC1CCN(Cc2nnnn2CCCC(=O)N(C)C2CCOC2)CC1 (centres undefined)
  -1% | nt | -8% | -2.0%
> CCOc1ccc(CC(=O)N2CCN=C2SC)cc1
  -15% | -2 | -18% | 3.2%
> CC(=O)NCCOC(=O)c1nn(Cc2ccccc2)c(=O)c2ccccc12
  4% | nt | 10% | 2.7%
> CCCCCCCCN1[C@@H](CC(=O)OCC)c2cc(F)ccc2S1(=O)=O
  nt | nt | -14% | 1.5%
> Cc1cc(-c2cccc([N+](=O)[O-])c2)nc2ccc3ccccc3c12
  -1% | 3 | 3% | 1.6%
> C/C(=N\Nc1ccc(S(=O)(=O)N2CCCCC2)cn1)c1ccc(O)cc1
  nt | nt | -9% | 7.6%
> CC(=O)c1cc(CC=C(C)C)c(O)cc1O
  -4% | -7 | -4% | 3.5%
> Cc1cc(C)cc(N=Cc2c(O)c3ccccc3oc2=O)c1
  0% | 2[21.1 µM] | 4% | ?
> Cc1ccc(CN(c2ccc(C(=O)NCc3ccccn3)cc2)S(C)(=O)=O)cc1
  9% | -18 | 1% | 1.7%
> CCN(CC)CCn1c(=N)n(CC(O)c2ccco2)c2ccccc21 (centres undefined)
  -7% | 6 | -17% | 1.5%
> CCOc1ccccc1C1C(C(=O)OC)=C(N)OC2=C1C(=O)CCC2 (centres undefined)
  1% | 2 | 18% | -3.1%
> Cc1ccc(S(=O)(=O)N[C@@H](Cc2ccccc2)C(=O)N2CCC[C@@H]2C(=O)O)cc1
  -1% | nt | -4% | -1.9%
> O=C(CCn1c(=S)[nH]c2cc3c(cc2c1=O)OCO3)NCc1cccc(Cl)c1
  -1% | nt | 0% | -5.5%
> CC(=O)COc1ccc2c(-c3ccccc3)cc(=O)oc2c1
  -29% | -15 | 1% | ?
> COc1ccccc1N1CCN(S(=O)(=O)c2cc3[nH]c(=O)c(=O)[nH]c3cc2C)CC1
  0%&-4% | nt | -7% | 3.4%
> CC(C)C12CN3CC(C(C)C)(CN(C1)C3(C)C)C2=O
  0% | 1 | -5% | 1.0%
> COc1cccc(NC(=O)CN(C)C(=O)CCSc2ccc(C)cc2)c1
  nt | nt | -10% | 3.9%
> COc1ccc(C2CC(c3ccc(F)cc3)=NN2c2ccccc2)cc1OC (centres undefined)
  -19% | nt | -3% | 1.6%
> O=C(CP(=O)(c1ccccc1)c1ccccc1)N/N=C/c1cc(Br)cc(Br)c1O
  -1% | 6 | ? | ?
> Cc1cccc(C)c1NC(=O)NC1CC2CCC(C1)N2Cc1cccs1 (centres undefined)
  -7% | 2 | 0% | -2.0%
> CCC(CC)NC(=O)COC(=O)c1ccc(OCc2ccc(C(C)=O)cc2OC)c(OC)c1
  -2% | 1 | 4% | -3.3%
> O=C(C[n+]1cccc(CNC(=O)c2ccc(OC(F)F)cc2)c1)Nc1ccccc1Cl
  -4% | 5 | 17% | -0.9%
> Cc1ccc(NC(=O)C(C)N2C(=O)c3ccccc3C2=O)cc1C (centres undefined)
  1% | nt | -6% | 0.3%
> CCOC(=O)c1ccc(NC(=O)c2ccc(NC(=O)c3ccccc3)cc2)cc1
  -1% | -4 | -22% | 3.0%
> O=C(CCCC(=O)OCC(=O)c1cccs1)Nc1ccc(F)cc1
  0% | 11 | -3% | -0.6%
> CCc1c(C)nc(SCC(=O)N2C(C)CCCC2C)[nH]c1=O (centres undefined)
  1% | 1 | -1% | 3.7%
> CC(Cc1cnccn1)NC(=O)c1cc(COc2ccc(F)cc2F)on1 (centres undefined)
  -4% | nt | ? | 2.0%
> O=C(O)CCC(=O)N1CCC(n2nnc3cc(C(F)(F)F)ccc32)CC1
  -1% | 3 | 2% | -0.9%
> Cc1cc(NC(=O)c2cccs2)ncc1NC(=O)C(C)(C)C
  -12% | nt | 0% | 6.1%
> CC(C)CCN1CC(C(=O)NCc2ccc(F)cc2)CC1=O (centres undefined)
  3% | -1 | -10% | -6.4%
> CCOc1ccc(N(CC(=O)Nc2ccccc2Cl)S(C)(=O)=O)cc1
  -7% | nt | 9% | -0.1%
> O=C(C1=C[C@@H](C2CC2)C[C@@H](OCc2ccc(CO)cc2)O1)N1CCN(Cc2ccccc2)CC1
  9% | -1 | -3% | 4.6%
> CCCN1C(=O)/C(=C/c2ccc(C)o2)SC1=Nc1ccc(OCC)cc1
  -5% | -1 | -7% | 0.8%
> COc1cc(/C=C2/C(=N)N3N=C(CC(=O)N4CCOCC4)SC3=NC2=O)ccc1OCc1ccccc1
  -40% | nt | -3% | -0.3%
> CC(=O)Nc1ccc(S(=O)(=O)N2CCSC2c2ccc(Cl)cc2)cc1 (centres undefined)
  23% | -8 | 1% | 1.6%
> Cc1cc(Cl)ccc1OCC(=O)NNC(=O)C1CCN(c2ncnc3sc(C)c(C)c23)CC1
  nt | nt | 13% | 3.3%
> O=C(Cc1ccccc1)NC(=S)Nc1ccc(N2CCCCC2)cc1
  -2% | -11 | 16% | -5.5%
> CCCNC(=O)C(CC)NS(=O)(=O)c1ccc(OC)cc1 (centres undefined)
  -3% | 2 | 0% | -5.8%
> Cc1cc(=O)nc2c3ccccc3n(CC(=O)NC3CCCCC3)n12
  -2% | nt | -9% | 3.2%
> O=C1NN(c2ccccc2)C(=O)/C1=C\c1cccn1-c1ccc(Cl)c([N+](=O)[O-])c1
  7% | 3 | -8% | 2.3%
> Cc1cc(=O)[nH]c(S/C=C/c2ccccc2)n1
  -34% | 3 | -6% | 1.2%
> CCN(CC)CCn1c2c(c(SCC(=O)Nc3cc(C)cc(C)c3)nc1=O)CCC2
  nt | nt | 7% | -4.9%
> CC(C)(C)c1ccc(S(=O)(=O)NNC(=O)c2cc3ccccc3[nH]2)cc1
  -38% | nt | -3% | -1.7%
> Cc1ccc(C2C(C#N)=C(N)OC3=C2C(=O)CC(C)(C)C3)s1 (centres undefined)
  2% | 4 | 17% | -0.2%
> CC(=O)N1CCN(c2nc(N)c(C#N)c(CC#N)c2C#N)CC1
  -1% | 3 | 0% | ?
> Cc1cc(NCc2ccco2)n2ncnc2n1
  -9% | -4 | 11% | ?
> O=C(COC(=O)Cc1c(Cl)cccc1Cl)NCC1CCCO1 (centres undefined)
  -12% | 3 | 1% | -2.4%
> CCc1cc(C(=O)N2CCOCC2)c(NC2=NS(=O)(=O)c3ccccc32)s1
  0% | 3 | ? | ?
> COc1ccccc1CN1CCNC(=O)C1CC(=O)O (centres undefined)
  -1% | -1 | -2% | -0.4%
> CCCC1=C(C(=O)OCC)C(/C=C/c2ccccc2)n2ncnc2N1 (centres undefined)
  26% | -18 | 6% | -4.1%
> O=C(CCn1ccc([N+](=O)[O-])n1)Nc1nccs1
  0% | 5 | 28% | -0.3%
> COc1ccc(N2CCN(C(=O)c3ccc(NS(=O)(=O)c4ccccc4)cc3)CC2)cc1
  -7% | -13 | 1% | -0.1%
> N#Cc1c(N(CCO)CCO)nc(N)c2c(N)nc3c(c12)CC(=O)N3CC1CCCO1 (centres undefined)
  -5% | 5 | -19% | ?
> CCOC(=O)C1=C(CSc2nc(C)cc(C)c2C#N)OC(N)=C(C#N)C1c1ccccc1 (centres undefined)
  -2% | -8 | ? | ?
> COc1cc(OC)cc(C(=O)NCc2n[nH]c(=S)n2-c2ccccc2)c1
  -6% | -11 | 7% | -6.0%
> CC(=O)NCCC(=O)Nc1cc(F)ccc1C
  -2% | 2 | -15% | 3.7%

Remaining list, next part
Below each SMILES: miR-21 FLuc | GLA inh pH 4.5 | Rango dissoc inh | Rango-impB inh
> CC(=O)OC1COC(N2CCc3ccccc32)C(OC(C)=O)C1OC(C)=O (centres undefined)
  -4% | 7 | -10% | 1.1%
> Cc1cc(C(=O)OCC(=O)NC2CCCCC2C)c2ccccc2n1 (centres undefined)
  nt | nt | -2% | 9.6%
> COc1ccc(-c2cn3c(n2)CCC3)cc1
  -29% | 3 | 9% | -2.7%
> CCNC(=O)N(C)C[C@H]1N[C@@](CC)(C(=O)OC)[C@H]2C(=O)N(C)C(=O)[C@@H]12
  nt | nt | -11% | -0.5%
> CC(=O)OCC=C1CCC2C3CCC4=CC(=O)CCC4(C)C3C(O)CC12C (centres undefined)
  nt | nt | 9% | 4.1%
> O=C(COC(=O)/C=C/c1ccc([N+](=O)[O-])cc1)NCc1cccs1
  nt | nt | -23% | 0.7%
> COC(=O)c1cccc(N2CCCC2=O)c1
  0% | 5 | 22% | -0.2%
> CCOC(=O)N1CCN(C(=O)CN(Cc2ccccc2)S(C)(=O)=O)CC1
  0% | -1 | -4% | -4.1%
> CN(C)S(=O)(=O)c1ccc(N2CCCC2)c(C(=O)N2CCN(S(=O)(=O)c3ccccc3F)CC2)c1
  nt | nt | -20% | -2.9%
> CN(CCC#N)C(=O)COC(=O)c1ccccc1OCc1ccccc1Cl
  -3% | -5 | -1% | -1.2%
> CCOC(=O)c1noc(C)c1C(=O)Nc1nc(C)cc(C)n1
  2% | 1 | 1% | 2.0%
> O=c1c(Cc2c(F)cccc2Cl)c(O)ccn1C1CC1
  -14% | 6 | -3% | -0.2%
> Cc1cc(C)cc(NC(=O)CSc2nnc(-c3ccncc3)o2)c1
  nt | nt | 4% | -0.8%

Compound activity from PubChem.
